TRPML1 inh: inhibitors of human TRPML1 channel | TRPML1-inducible cells, Ca2+ dye fluorescence, FDSS; stronger effect = lower value; inhibition of EC80 agonist-evoked calcium signal | hit rate 0.02% among 390,000 | Q9GZU1 | activity change, negative = inhibition, % (test concentration not listed); in the data active means activity change below about -50%; inconclusive means about -30% to -50%; inactive means above about -30%;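 further: stimulus is agonist 54-4 at its EC80 concentration; on the % scale 0 is the no-effect control and ±100 the full control effect; compound concentration not given in the record; the text of the record puts the active cut at -80%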
Target sequence (Q9GZU1 whole entry, looked up): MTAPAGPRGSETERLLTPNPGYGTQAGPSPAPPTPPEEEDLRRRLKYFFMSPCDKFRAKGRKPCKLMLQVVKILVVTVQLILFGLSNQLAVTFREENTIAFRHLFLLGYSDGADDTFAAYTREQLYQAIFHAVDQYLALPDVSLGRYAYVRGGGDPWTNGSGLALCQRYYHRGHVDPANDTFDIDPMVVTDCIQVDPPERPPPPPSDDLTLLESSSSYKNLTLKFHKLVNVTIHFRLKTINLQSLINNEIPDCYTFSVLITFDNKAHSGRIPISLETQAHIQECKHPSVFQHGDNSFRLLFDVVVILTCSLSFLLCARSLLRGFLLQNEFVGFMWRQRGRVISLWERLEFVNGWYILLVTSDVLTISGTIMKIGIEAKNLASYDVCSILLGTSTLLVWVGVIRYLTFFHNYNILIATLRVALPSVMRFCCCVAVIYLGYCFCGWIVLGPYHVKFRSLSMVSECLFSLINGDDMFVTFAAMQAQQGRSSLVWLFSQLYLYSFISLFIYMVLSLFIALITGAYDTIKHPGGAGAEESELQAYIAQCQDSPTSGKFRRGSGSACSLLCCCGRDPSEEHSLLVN
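TRPML1-DL cells, Tet-induced overnight (~16 h, 37 °C) at 1,500 cells/well, were loaded with Ca8 no-wash dye plus quencher for 45-90 min at room temperature. Compounds were pinned during FDSS kinetic reading; agonist 54-4 at EC80 (4 uM final) then added.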
ClpP mod: qHTS Assay for Activators of ClpP | purified B. subtilis ClpP, FRET peptide cleavage, 20 min | Potency, µM (top dose mostly 57.5 µM), without a hit: top-dose activity change, negative = active | AID 651965, 2013 | hit rate 1.9% among 340,000; active = well fitted falling curve with a large enough effect; inconclusive = small, poorly fitted or top-dose-only effect; inactive = no such curve, though single readings can be large or run the other way; further: potency means the concentration at half of the fitted maximal effect; the source files actives as falling curves though it sought activators and does not explain the sign; nearly all actives have a fitted effect of over 65% in size; many hits overshoot -100%
Target sequence (P80244 whole entry, looked up): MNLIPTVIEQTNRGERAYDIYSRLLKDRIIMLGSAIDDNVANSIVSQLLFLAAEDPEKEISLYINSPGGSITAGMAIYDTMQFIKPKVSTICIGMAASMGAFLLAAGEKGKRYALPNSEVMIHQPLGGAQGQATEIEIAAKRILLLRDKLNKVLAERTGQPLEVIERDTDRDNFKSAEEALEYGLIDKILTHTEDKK
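Buffer: 100 mM Tris/HCl pH8, 100 mM KCl, 0.05% low protease BSA, 2.5% glycerol, 0.01% Tween-20. ClpP 10 microg/mL final; 20 min RT; delta FRET normalized to ADEP and DMSO controls.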
Menin MLL FP FL: menin-MLL binding inhibition, fluorescein peptide | Fluorescence polarization, fluorescein-MLL peptide displacement from menin | 290,000 tested, under 10 active | FP activity change, % at 61.4 µM; inconclusive = falling polarisation curve, or a change in total fluorescence; inactive = total fluorescence flat and polarisation flat or rising; no compound was filed as active; the % refers to the polarisation; negative = inhibition;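 further: % of control where 0% means no effect; inhibitors lower the polarisation; unlabelled MLL peptide was the positive control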
gsp antagonist: antagonists of gsp mutant (McCune-Albright syndrome) | gsp-mutant cells, cAMP HTRF, 30 min; control for the full effect not named in the record | Potency, µM (highest dose often 76.9 µM), without a hit: at the highest dose activity change, negative = inhibition, usual class: inhibitors | hit rate 0.4% among 340,000; active = falling curve of any shape with a large fitted effect; inconclusive = falling curve, mostly with a smaller effect; inactive = flat or rising curve; cell line not stated here;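 further: intracellular cAMP measured with PDE inhibitor Ro 20-1724 present during compound exposure; potency means the concentration at half of the fitted maximal effect; on the % scale 0 is the no-effect control and ±100 the full control effect; nearly all actives have a fitted effect of over 65% in size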
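Cells in G418 medium, seeded 16-24 h, 37C; buffer exchange to DPBS + 1 mM CaCl2, 0.5 mM MgCl2, 0.05% BSA; cpds in DMSO + […] (300 uM stock), 30 min 37C; HTRF cAMP detection.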
TRPML1 ag: human mucolipin-1 channel agonism; Q9GZU1; TRPML1-expressing cells, Ca2+ dye fluorescence, FDSS; host cell line not named in the record; reference of the full effect not given here; activation, % (concentration not given with the values); hit rate 0.12% among 410,000; AID 624414; in the data active = activation above about 50%; inconclusive = about 30% to 50%; inactive = below about 30%; further: 0% is about no effect; the text of the record puts the active cut at 80%
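Tet-induced TRPML1-DL cells, 1,500 per well, cultured overnight, were loaded with a no-wash Ca2+ dye for 45–90 min. Calcium fluorescence was recorded on the FDSS for 110 s after compound addition, before the EC80 agonist (4 uM 54-4) was added.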
gsp agonist: agonists of gsp mutant (McCune-Albright syndrome); gsp mutant cells, cAMP HTRF, 30 min; control for the full effect not named in the record; hit rate 0.13% among 340,000; Potency, µM (titrated, usually from 76.9 µM), inactives show at the top dose activation (cAMP increase), hits mostly activators; active = well fitted activation curve with a large enough effect; inconclusive = small, poorly fitted or top-dose-only effect, or another doubt; inactive = no such curve, though single readings can be large or run the other way; cell line not stated here;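 further: phosphodiesterase inhibitor Ro 20-1724 added with compounds to block cAMP breakdown; potency means the concentration at half of the fitted maximal effect; nearly all actives have a fitted effect of over 60% in size; about a fifth of the inactives were tested at one dose only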
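Cells stably selected in G418 were plated at 2000/well, grown 16-24 hr, then given compounds in DMSO with the PDE inhibitor […] (300 uM solution added) for 30 min at 37C; cAMP was read by HTRF.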
Numbers without * were called inactive; ? = inconclusive; . = not tested or not shown; & = joins results of further samples; [ ] = dose if it differs, or a comment.

SMILES	TRPML1 inh	ClpP mod	Menin MLL FP FL	gsp antagonist	TRPML1 ag	gsp agonist
Cc1cc(NC(=O)c2cc(C(C)(C)C)oc2C)no1	-1	0.0%	1.6	2%	0.1	3%
Clc1ccc2[nH]c3c(N4CCC5(CC4)OCCO5)ncnc3c2c1	-8	13µM*	-0.7	35µM*	7.3	9%
Cc1ccc(S(=O)(=O)Nc2ccccc2C(=O)N2CCN(C)CC2)cc1	4	0.6%	-0.1	6%	-0.5	26%
O=C(Nc1cccc(F)c1)C1CCN(C(=O)NCc2ccccc2)CC1	4	.	.	2%	0.5	19%
Cc1cc(=O)oc2cc(OCC(=O)NCC3CCC(C(=O)O)CC3)ccc12 (configuration not stated)	.	4.8%	-3.9	6%	.	.
COc1cccc2sc(Nc3nnc(-c4cccs4)o3)nc12	2	?	-0.5	-3%	0.8	15%
Cc1cc(C)cc(NC(=O)COC(=O)CNC(=O)C2CCCCC2)c1	0	0.3%	.	-1%	0.1	-2%
COC(=O)CC1C(=O)NCCN1C(=S)NC(=O)c1sc2ccccc2c1Cl (configuration not stated)	.	1.4%	-2.7	-15%	.	?
CCOc1ccc(C(c2c(O)nc(SC)n(C)c2=O)c2c(O)nc(SC)n(C)c2=O)cc1	0	-1.7%	1.6	3%	-0.5	7%
CC[C@@]12C(=O)N(c3ccc(C)cc3)C(=O)N1[C@H](c1ccc(Br)cc1)[C@@H]1C(=O)N(C(C)(C)C)C(=O)[C@@H]12	-7	3.0%	0.0	-5%	0.7	.
CCc1ccc(/C=C2/C(=O)N(c3ccccc3)C(=S)N2CC(=O)OC)s1	12	1.2%	0.3	16%	4.1	-56%[inhibitor]
CCS(=O)(=O)c1ccc2oc(SCC(=O)Nc3ccc(OC)c(OC)c3)nc2c1	-7	-0.7%	0.9	7%	-1.2	1%[15.4 µM]
Cc1cccc(N2CCN(C(=O)c3ccc(NS(=O)(=O)c4c(C)noc4C)cc3)CC2)c1C	16	1.7%	2.9	14%	3.6	16%
COc1ccc(C(=O)NNc2ccccc2)cc1	-15	-1.1%	3.1	5%	0.0	25%[15.4 µM]
CN(C)c1ccc(-c2noc(-c3ccccc3O)n2)cc1	-12	10µM*	1.8	-2%	-0.5	-12%
Cc1ccc(NC(=O)CSc2nnc([C@@H]3CCCN3C(=O)OC(C)(C)C)o2)c(C)c1	-5	-0.7%	-8.6	0%[15.4 µM]	2.1	?
O=C1NC2(CCCCC2)C(=O)N1Cc1cc(=O)n2ccsc2n1	-3	-10%	-9.1	16%	-0.2	30%
NC(=O)C(c1cccc(Cl)c1)c1ncc(C(F)(F)F)cc1Cl (configuration not stated)	-8	1.7%	5.8	7%	0.8	2%
O=c1oc(-c2ccccc2)nc2sc3c(c12)CCCC3	25	-7.8%	-0.8	-4%	0.9	3%
CCOC(=O)C1CCN(C(c2cc3cc(C)cc(C)c3[nH]c2=O)c2nnnn2C2CCCCC2)CC1 (configuration not stated)	-14	-6.1%	.	8%	-0.5	17%
C=CCN1C(=O)CSc2ccc(C(=O)NCc3ccco3)cc21	-18	-3.5%	1.9	-6%	0.9	32%
Cc1cc(C(=O)NC2CC(C)(C)Cc3c2cnn3-c2cccc(F)c2)n(C)n1 (configuration not stated)	4	1.5%	-1.8	-10%	0.5	-89%[inhibitor]
CCOc1ccc(NC(=O)CN(C)C(=O)CSCc2cccc(C)c2)cc1OCC	-1	-0.2%	.	-20%	2.6	26%[15.4 µM]
COc1ccc(OC)c(NC(=O)CSc2nnnn2-c2ccc3c(c2)OCO3)c1	22	-0.3%	0.2	-7%	1.5	0%
CCOc1ccccc1C(=O)NCCCCNC(=O)c1ccccc1OCC	9	.	.	-16%	2.6	?
CCc1nc2oc3ccccc3c(=O)c2c(=O)n1Cc1ccc(OC)cc1	-29	-3.4%	2.0	9%	-0.3	-1%
O=C(CSc1nc(=O)n(Cc2ccco2)c2c1CCC2)NCc1ccc(Cl)cc1	-5	-0.1%	.	.	-0.1	.
NS(=O)(=O)c1ccc(NC(=O)c2ccc(F)cc2F)c(NC(=O)c2ccc(F)cc2F)c1	-6	.	.	0%	-0.2	-5%[15.4 µM]
Nc1c(Cl)cc(C2=NCCn3nc4cc(C(F)(F)F)ccc4c32)cc1Cl	-1	-2.3%	.	4%	1.8	25%
O=C(NCc1ccc2c(c1)OCO2)C(=S)N1CCOCC1	7	.	0.5	0%	0.1	?
Cc1ccc(CN2CCN(Cc3nc4ccccc4nc3C)CC2CCO)cc1 (configuration not stated)	4	-1.2%	0.2	6%	0.4	24%
Cc1cc(C)c(NC(=O)CSc2nc3ccncc3[nH]2)c(C)c1	-8&2	-0.7%&-1.1%	-5.1	-12%	-0.3&-0.6	8%
CCCc1[nH]nc2c1C(c1ccc(O)cc1OCC)C(C#N)=C(N)O2 (configuration not stated)	8	-1.7%	0.9	-2%	-0.3	?
Brc1cc(Cc2nnc(-c3ccccc3)o2)c(Br)s1	-8	.	0.9	-15%	2.3	-43%[inhibitor]
O=[N+]([O-])/C(Cl)=C(/NCCO)C(Cl)=C(Cl)Cl	-9	-6.7%	.	-12%	0.0	-29%
O=c1c(-c2ccccc2)coc2cc(O)ccc12	.	4.7%	1.0	-4%	.	.
O=Cc1cn(CCOc2ccc(F)cc2)c2ccccc12	-2	-3.4%	.	.	4.0	-28%
Cc1cc(CC(C)C)n(-c2nc3ccccc3c(=O)n2OCc2ccccc2)n1	1	3.9%	2.8	-10%	0.8	-3%

Entries above containing four or more nitrogen atoms (14):
SMILES	TRPML1 inh	ClpP mod	Menin MLL FP FL	gsp antagonist	TRPML1 ag	gsp agonist
Clc1ccc2[nH]c3c(N4CCC5(CC4)OCCO5)ncnc3c2c1	-8	13µM*	-0.7	35µM*	7.3	9%
COc1cccc2sc(Nc3nnc(-c4cccs4)o3)nc12	2	?	-0.5	-3%	0.8	15%
CCOc1ccc(C(c2c(O)nc(SC)n(C)c2=O)c2c(O)nc(SC)n(C)c2=O)cc1	0	-1.7%	1.6	3%	-0.5	7%
Cc1cccc(N2CCN(C(=O)c3ccc(NS(=O)(=O)c4c(C)noc4C)cc3)CC2)c1C	16	1.7%	2.9	14%	3.6	16%
Cc1ccc(NC(=O)CSc2nnc([C@@H]3CCCN3C(=O)OC(C)(C)C)o2)c(C)c1	-5	-0.7%	-8.6	0%[15.4 µM]	2.1	?
O=C1NC2(CCCCC2)C(=O)N1Cc1cc(=O)n2ccsc2n1	-3	-10%	-9.1	16%	-0.2	30%
CCOC(=O)C1CCN(C(c2cc3cc(C)cc(C)c3[nH]c2=O)c2nnnn2C2CCCCC2)CC1 (configuration not stated)	-14	-6.1%	.	8%	-0.5	17%
Cc1cc(C(=O)NC2CC(C)(C)Cc3c2cnn3-c2cccc(F)c2)n(C)n1 (configuration not stated)	4	1.5%	-1.8	-10%	0.5	-89%[inhibitor]
COc1ccc(OC)c(NC(=O)CSc2nnnn2-c2ccc3c(c2)OCO3)c1	22	-0.3%	0.2	-7%	1.5	0%
Nc1c(Cl)cc(C2=NCCn3nc4cc(C(F)(F)F)ccc4c32)cc1Cl	-1	-2.3%	.	4%	1.8	25%
Cc1ccc(CN2CCN(Cc3nc4ccccc4nc3C)CC2CCO)cc1 (configuration not stated)	4	-1.2%	0.2	6%	0.4	24%
Cc1cc(C)c(NC(=O)CSc2nc3ccncc3[nH]2)c(C)c1	-8&2	-0.7%&-1.1%	-5.1	-12%	-0.3&-0.6	8%
CCCc1[nH]nc2c1C(c1ccc(O)cc1OCC)C(C#N)=C(N)O2 (configuration not stated)	8	-1.7%	0.9	-2%	-0.3	?
Cc1cc(CC(C)C)n(-c2nc3ccccc3c(=O)n2OCc2ccccc2)n1	1	3.9%	2.8	-10%	0.8	-3%

Source: PubChem BioAssay
